Source: PubChem BioAssay
Vif A3G: inhibitors of Vif binding to APOBEC3G peptide, primary screen, biochemical, TR-FRET, GST-Vif 1-94, biotin-A3G peptide, dose response retest (AID 1117319). inhibition, %, or IC50 in µM where a hit was titrated. 260,000 compounds, 0.57% hits. Virion infectivity factor (Human immunodeficiency virus type 1 group M subtype B (isolate …. TR-FRET GST-Vif / biotin-A3G peptide binding; higher % means a stronger effect; test concentration not given here; strong numbers were not always called active;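 active = above the screen mean plus three standard deviations and confirmed in dose response; inconclusive = results disagree or hit not tested in dose response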;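 note: Vif residues 1-94 fused to GST binding biotinylated APOBEC3G peptide 110-148; 0% = full assay without inhibitor and 100% = GST in place of GST-Vif; retest series ran down from 100 µM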
RanGTP-Impb inh: inhibitors of RanGTP-importin-beta interaction, primary screen, biochemical, FRET, CFP-Ran, YFP-importin-beta, homogeneous; Ran GTPase (GTP-bound) - importin-beta complex; cell-free CFP-Ran/YFP-importin-beta FRET ratio; inhibition, % (test concentration not listed); 300,000 compounds, 1.1% hits; AID 2216, 2009;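 active = most replicates above 15%; inconclusive = exactly half above 15%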;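 note: 0% = DMSO wells and 100% = Ran loaded with GDP instead of GTP; wells of about 40 µL received 100 nL stock; the first replicate is given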
Beta apoptosis: inhibitors of cytokine-induced beta cell apoptosis, primary screen, luminescence; INS-1E cytokine-induced death, ATP luminescence, 48 h; percent of positive-control rescue, neutral wells zero; protection from apoptosis, % (concentration not given with the values); 300,000 compounds, 0.8% hits; AID 435005, 2010;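 active = all replicates at 75% or more, or half of them and the mean; inconclusive = half reach 75% but not the mean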;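 note: 0% = cytokine-treated negative control wells and 100% = positive control rescue; higher means more ATP so stronger rescue from cytokine killing; wells of about 40 µL received 100 nL stock; the first replicate is given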
Calb FLC: C. albicans growth inhibition with fluconazole, primary screen, CaCi-2 strain, Alamar Blue fluorescence; 300,000 compounds, 0.57% hits; growth inhibition, % (concentration not given with the values); C. albicans CaCi-2 (fluconazole-resistant clinical isolate) + fluconazole, 48 h;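 active = most replicates above 75%; inconclusive = exactly half above 75%; inactive = most below 75%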;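 note: all wells also contain fluconazole at 8 µg/ml as a sub-toxic cotreatment; 0% = median of DMSO wells and 100% = median of geldanamycin control wells; wells of about 8 µL received 7.5 nL stock; the first replicate is given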
A1 inh: caspase 3/7 activation in MEF A1-2A-BIM cells, primary screen, A1 inhibitor project, cell-based, luminescence, HTS; 330,000 compounds, 0.066% hits; AID 2462, 2010; Caspase-Glo 3/7 luminescence, 3 h; percent of clofoctol response, vehicle zero; caspase activation, % (concentration not given with the values);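 active = over half of replicate activation scores above 10%, or exactly half above 10 with the replicate mean above 10; inconclusive = replicate mean below 10 yet half the replicates above 10; inactive = over half of replicates below 10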;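 note: wells of about 30 µL received 50 nL stock; many hits fall short of the cut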
T cruzi inh: inhibitors of intracellular T. cruzi growth, primary screen, luminescence, NIH3T3 host cells. inhibition, % (test concentration not listed). 300,000 compounds, 1.4% hits. T. cruzi beta-gal in NIH3T3, 90 h;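 active = mean inhibition across valid replicates above about 55%, limit read from the data; inconclusive = mean below that limit but half or more replicates reach it; inactive = mean below it, under half of replicates reach it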;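 note: signal also drops with host cell toxicity which is not excluded here; 0% = plate median of DMSO wells and 100% = zero luminescence signal; higher percent means less beta-gal luminescence so fewer parasites; stock transfer was 50 nL into about 50 µL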
Ecoli rRNA inh: reduced GFP signal of wild-type E. coli, primary screen, bacterial rRNA inhibitor project, GFP/RFP fluorescence, OD600, single point. 350,000 compounds, 1.6% hits. GFP signal change (wild-type ribosome), % (concentration not given with the values). E. coli WT GFP vs humanized-ribosome RFP mutants, 24 h; hits give low values; DMSO median 0, no signal -100. AID 720706, 2013;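 active = significant combined selectivity score with lowered wild-type GFP, culture density cut under 30%, mutant RFP and density less affected; inactive = any of these conditions unmet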; note: one replicate is shown; some compounds called inactive have numbers as strong as hits
AF4-AF9 inh: inhibitors of AF4 peptide binding to AF9, primary screen, biochemical, AlphaScreen, biotin-AF4 peptide, FLAG-AF9, single point. inhibition, % at 10 µM. 350,000 compounds, 0.47% hits. AID 651704, 2012;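 active = every replicate reaching a set inhibition limit, whatever the replicate mean, cut at about 25% in these data; inconclusive = mean inhibition reaches that limit but some replicates miss it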;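 note: 0% = plate neutral control median and 100% = total signal loss; the record names both 10 and 1 µM as test concentration; the first replicate is given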
Target sequence (P42568 whole entry, looked up): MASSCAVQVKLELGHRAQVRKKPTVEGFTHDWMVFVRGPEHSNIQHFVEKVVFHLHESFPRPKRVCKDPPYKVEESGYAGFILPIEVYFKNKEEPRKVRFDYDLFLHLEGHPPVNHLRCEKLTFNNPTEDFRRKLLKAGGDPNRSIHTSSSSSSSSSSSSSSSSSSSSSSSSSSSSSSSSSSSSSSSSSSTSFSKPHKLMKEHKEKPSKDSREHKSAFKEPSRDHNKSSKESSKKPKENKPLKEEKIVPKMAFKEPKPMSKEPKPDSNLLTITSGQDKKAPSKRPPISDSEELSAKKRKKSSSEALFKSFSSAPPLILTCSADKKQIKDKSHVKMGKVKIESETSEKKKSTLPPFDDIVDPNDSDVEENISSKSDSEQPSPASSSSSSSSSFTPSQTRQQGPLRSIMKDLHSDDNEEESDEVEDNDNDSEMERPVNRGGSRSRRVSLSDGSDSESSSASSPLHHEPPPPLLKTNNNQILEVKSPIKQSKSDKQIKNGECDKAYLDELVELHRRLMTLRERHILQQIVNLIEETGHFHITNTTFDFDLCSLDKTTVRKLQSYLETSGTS
Ecoli rRNA inh OD600: also measured in Ecoli rRNA inh; calls as there; OD600 change, %; measured here: OD600 growth;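 optical density of the mix in the first replicate; 0 = DMSO median and -100 = no signal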
Ecoli rRNA inh RFP: second read-out of Ecoli rRNA inh, no call of its own (marks repeat the call); RFP signal change, %; measured here: RFP humanized mutant strains;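 first replicate; 0 = DMSO median and -100 = no signal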
* marks the source's active call; other numbers are inactive results; u = inconclusive; x = not tested or not shown. A portion of the library (hit frequency here may not be typical).

SMILES,Vif A3G,RanGTP-Impb inh,Beta apoptosis,Calb FLC,A1 inh,T cruzi inh,Ecoli rRNA inh,Ecoli rRNA inh OD600,Ecoli rRNA inh RFP,AF4-AF9 inh
O=C(CSc1nnc2ccccn12)NCCc1ccc(F)cc1,-3%,x,-6,-7,1.1,x,14,4,0.7,-0.1
O=C(Cc1ccc([N+](=O)[O-])cc1)N1CCc2ccccc2C1,3%,-0.3,-6,-38,-1.0,12,13,6,0.3,0.3
O=C(CCSCc1ccc(Cl)cc1)NCc1ccco1,-10%,4.4,1,-6,-0.5,-11,-1,8,-1.5,1.0
CC(C)(C)[C@@H]1C=C(C(N)=O)O[C@H](OCc2ccc(CO)cc2)C1,-10%,-0.8,8,-7,1.5,-16,-6,1,-2.3,1.5
Cc1ccc(NS(=O)(=O)c2cc(C(=O)N(C)C)ccc2C)cc1C,-2%,u,x,-8,x,-7,-11,-20,-1.5,-0.5
O=C(CCN1C(=O)c2ccccc2C1=O)NCc1ccco1,>100µM*,2.3,x,11,0.2,-8,2,7,-0.3,-5.6
CCC(C)C(NC(=O)C(C)NC(=O)CNC(=O)OC(C)(C)C)C(N)=O (stereo unspecified),5%,-0.6,2,-18,-0.1,-5,23,26,0.3,-3.3
Cc1ccc(-n2c(SCC(=O)N3Cc4ccccc4CC3C(=O)O)nnc2-c2cccnc2)c(C)c1 (stereo unspecified),9%,0.0,-9,-12,0.1,-15,18,21,-0.1,20
S=C1NCCc2ccccc2C1c1ccccc1Cl (stereo unspecified),7%,-4.5,0,-4,0.2,1,x,x,x,x
O=C(NCc1ccc(Cl)c(Cl)c1)c1ccc2c(c1)OCO2,x,-1.5,5,-15,0.1,-23,-23,-46,12,0.5
CC(=O)Nc1ccc(S(=O)(=O)NCCC(=O)OCc2nnc(-c3ccccc3)o2)cc1,-1%,x,-3,-3,0.5,0,8,7,1.9,1.2
O=C(CSc1nnc2ncccn12)Nc1cccc2ccccc12,x,1.1,6,9,0.5,-9,7,3,0.7,-0.8
CCCCc1nc2cc(C(=O)NCc3nccn3CC)ccc2o1,x,-0.3,-3,-10,0.3,-6,-2,-6,-1.9,2.3
CCn1c(SCC(=O)NC(=O)Nc2ccc3c(c2)OCCO3)nnc1-c1cccs1,9%,0.6,x,2,-1.5,10,x,x,x,x
COc1ccc(S(=O)(=O)N2CCC(C(=O)Nc3ccc(S(=O)(=O)N4CCCC4)cc3)CC2)cc1OC,-11%,1.6,5,3,0.7,5,0,7,2.9,5.6
CNC(=S)N(CCO)Cc1cc2cc3c(cc2[nH]c1=O)OCCO3,-3%,-9.8,-9,21,0.2,-7,-1,-8,1.5,-2.4
CC(=O)c1ccc2c3c(cccc13)C(=O)N(CCc1ccccc1)C2=O,2%,0.2,0,13,-1.6,-50,7,2,5.9,-5.3
Cc1ccc(C(=O)COC(=O)c2ccc3c(c2)C(=O)N(c2cccc4ncccc24)C3=O)cc1,x,x,5,x,6.4*,-11,10,10,1.3,0.5
Cc1ccc(-c2onc3ccc(Br)cc23)cc1,4%,1.4,-1,-9,-2.4,-25,-5,-4,-3.2,12
Cc1ccc(SCc2nc(-c3cccnc3)no2)cc1,23%,1.0,-2,-1,-0.6,4,x,x,x,x
COc1ccc(CNC(=O)c2onc(C)c2Cl)cc1,31%,-1.6,3,-8,-0.1,-6,9,14,1.3,-5.5
CCOC(=O)C1=C(C)NC(=O)NC1c1ccccc1OCc1c(F)cccc1Cl (stereo unspecified),13%,-2.7,-5,0,0.4,8,x,x,x,x
CCCOc1ccc2oc(=O)c3c(c2c1)CCCN3C(=O)CN1CCN(c2ncccn2)CC1,0%,0.7,2,32,0.0,x,x,x,x,x
CC(=O)Nc1ccc2nc(-c3cccn3C)[nH]c2c1,5%,-1.3,3,-3,-2.5,-8,4,0,1.0,-4.5
CCNC(=S)NNC(=O)CCc1nc2cc(Cl)ccc2n(Cc2ccccc2)c1=O,x,-1.7,7,13,-0.2,-3,-1,-2,-1.4,2.5
CCC(C)(C)n1nnnc1C(c1ccc2ncccc2c1)N1CCN(c2ccc(O)cc2)CC1 (stereo unspecified),4.7µM*,-1.0,-1,-4,1.2,9,-8,-9,-5.1,0.1
Cc1ccc(Cn2c(NS(=O)(=O)c3ccccc3)nc3ccccc32)cc1,-10%,3.9,5,-7,0.0,21,x,x,x,x
COC(=O)c1ccc(S(=O)(=O)NC(C)(C)C)n1C,7%,2.7,2,-3,0.4,-4,8,16,-0.1,4.8
COC(=O)C1=C(C)N(CC(C)C)C(=O)/C1=C\c1cccs1,3%,2.4,2,4,0.0,4,x,x,x,x
CCCC(=O)Nc1ccc(NC(=O)c2cccc(OC)c2)cn1,8%,1.5,x,-3,-5.0,-3,-3,2,-3.8,2.0
c1ccc(C(c2ccccc2)N2CCN(c3ccc4ccccc4n3)CC2)cc1,-2%,4.0,2,-11,0.2,23,x,x,x,x
COc1ccc(NC(=O)c2sc3nc(C)cc(C)c3c2N)c(OC)c1,x,1.4,-6,-6,-0.9,-8,x,x,x,0.2
CC(=O)Nc1nc(C2COc3ccccc3O2)cs1 (stereo unspecified),4%,-1.3,x,5,-4.6,4,-9,-4,0.8,x
COc1cc(C(=O)OCC(=O)N2CCCCCC2)c([N+](=O)[O-])cc1OC,x,x,0,x,-0.8,x,-2,-14,-0.9,-1.4
N#Cc1ncc(-c2ccc3c(c2)OCCOCCOCCOCCO3)nc1C#N,6%,-3.4,0,-6,0.6,11,x,x,x,x
O=C(CSc1nnc(CNC(=O)c2ccccc2)o1)Nc1ccc2c(c1)OCCO2,1%,2.2,0,0,0.7,-8,6,11,-2.7,-1.8
S=c1[nH]cc(-c2ccccc2)n1-c1ccccc1Cl,-9%,-1.0,7,-3,1.0,2,x,x,x,x
Cc1nonc1C(=O)N/N=C/c1ccc(O)c(O)c1,x,-2.9,-8,0,1.2,-22,x,x,x,x
CCN(Cc1nc2ccccc2c(=O)[nH]1)C(=O)c1cccc(S(=O)(=O)N2CCc3ccccc32)c1,-4%,x,-7,x,-2.4,x,-22,-33,-5.8,1.6
CCCCOc1ccc(/C=C/C(=O)Nc2ccc(C(N)=O)cc2)cc1,16%,2.1,9,u,0.8,-9,x,x,x,x
O=C(O)c1ccccc1C(=O)c1ccc(Oc2ccccc2)cc1,u,0.6,-5,-5,-1.2,10,-21,-2,-14,0.7
Cc1nn(CC(=O)N2CCN(S(=O)(=O)c3ccccc3)CC2)c(C)c1[N+](=O)[O-],x,x,10,x,-1.8,x,2,9,-4.5,2.4
COc1ccc(Cc2nnc(NC(=O)Cc3cccs3)s2)cc1OC,u,-3.6,x,2,0.3,-10,x,x,x,x
CCN(CC)c1ccc(C=Nc2cccnc2Cl)c(O)c1,9%,0.7,-5,6,-0.4,4,3,7,22,-0.4
COC(=O)c1ccccc1NC(=O)CSc1nnc(CNS(=O)(=O)c2ccc(C)cc2)n1C,1%,4.2,x,-8,x,5,x,x,x,x
CCSc1nnc(NC(=O)c2ccccc2C)s1,2%,-0.7,x,u,-7.9,-4,-6,-3,0.3,-0.7
COc1cc2nc3c4ccccc4n(CC#N)c3nc2cc1OC,5%,9.4,x,14,x,-8,x,x,x,x
O=C(NC1CCCCC1)c1ccc(-c2cccc([N+](=O)[O-])c2)o1,0%,1.8,3,2,1.0,16,1,10,-1.7,0.8
COc1cccc(CN(C)CC(=O)Nc2cccc(S(N)(=O)=O)c2)c1OC,-6%,-1.2,-7,4,0.2,-11,5,4,3.0,-4.7
COc1ccc(S(=O)(=O)Cc2ccc(C(=O)N3CCc4ccccc4C3)o2)cc1,5%,-0.7,-2,5,0.2,-2,-12,-22,-0.1,-4.2
Cc1[nH]c2ccccc2c1SCC(=O)NC1CCCCC1,-5%,2.7,-4,-15,1.0,-15,-28,-16,-3.0,4.9
COc1ccc(S(=O)(=O)NCc2ccncc2)cc1NC(=O)c1ccccc1F,-3%,x,2,x,0.6,x,6,9,-0.8,-1.5
Cc1cccc(-n2ncc3c(N4CCCc5ccccc54)ncnc32)c1,-5%,0.4,2,-6,-0.1,-26,x,x,x,x
CCOc1cc(/C=N/NC(=O)CSc2nnc(C)s2)ccc1OCc1ccccc1Cl,x,5.4,6,10,u,12,16,17,1.9,0.0
Cc1ccc(NC(=O)CCN2C(=O)c3ccccc3C2=O)cc1C,-10%,-4.4,-7,3,-1.1,-9,x,x,x,x
CCN(CC)C(=O)N1CCc2ccccc21,-1%,1.2,1,2,-0.2,-18,9,8,-1.3,0.1
COc1cccc(CN(C)Cc2nc(Cc3ccccc3Cl)no2)c1,4%,u,-4,2,0.3,-2,-26*,-14*,-2.5*,0.4
COc1cccc(/C(O)=C/C(=O)C(=O)Nc2ccc(S(=O)(=O)NC(C)=O)cc2)c1,4%,-3.7,-5,-5,0.2,-11,4,-3,2.6,-1.0
CC1CCN(C(=O)c2cc3ccccc3c(=O)o2)CC1,-3%,-1.5,2,0,0.2,-16,4,-1,-4.0,8.8
O=C(CSc1nnc(NCc2ccccc2)s1)NC1CCS(=O)(=O)C1 (stereo unspecified),-11%,3.0,-5,3,-0.4,2,6,0,-2.5,-23

Following part:
SMILES,Vif A3G,RanGTP-Impb inh,Beta apoptosis,Calb FLC,A1 inh,T cruzi inh,Ecoli rRNA inh,Ecoli rRNA inh OD600,Ecoli rRNA inh RFP,AF4-AF9 inh
COCCCNS(=O)(=O)c1cc2c3c(c1)C(C)C(=O)N3CCC2 (stereo unspecified),x,5.5,-2,1,0.0,-5,4,5,-0.9,-0.8
OC(COCC(F)(F)C(F)(F)C(F)(F)C(F)F)Cn1c2ccccc2c2ccccc21 (stereo unspecified),x,1.2,3,2,0.0,59*,-30,-41,18,0.2
CCOc1ccc(-c2cc3cc(OC)c(OC)cc3c(C)n2)cc1,-10%,11,-5,4,0.6,-1,13,10,-0.2,-0.6
CCC(Sc1ccccn1)C(=O)Nc1nnc(C)s1 (stereo unspecified),10%,0.1,-2,1,-0.9,3,x,x,x,x
Cc1ccc(C2(C)NC(=O)N(CC(=O)NCCC3=CCCCC3)C2=O)cc1 (stereo unspecified),-3%,1.7,x,-3,0.8,1,x,x,x,x
Cc1nc2ccc(NC(=O)c3cc([N+](=O)[O-])cc([N+](=O)[O-])c3Cl)cc2s1,u,x,0,x,-1.8,x,-24,-10,29,5.7
